Source: PubChem (several laboratories)
UGM FP inh: M. tuberculosis UGM enzyme inhibitors, primary screen, biochemical, fluorescence polarization, single point | inhibition, % at 10 µM | hit rate 0.06% among 320,000 | purified UGM, fluorescence polarization probe displacement | AID 504406, 2011 | UDP-galactopyranose mutase (Mycobacterium tuberculosis (strain ATCC 25618 / H37Rv)), …; in the data active = inhibition above about 10%, passing the limit was not always enough
Target sequence (P9WIQ1 whole entry, looked up): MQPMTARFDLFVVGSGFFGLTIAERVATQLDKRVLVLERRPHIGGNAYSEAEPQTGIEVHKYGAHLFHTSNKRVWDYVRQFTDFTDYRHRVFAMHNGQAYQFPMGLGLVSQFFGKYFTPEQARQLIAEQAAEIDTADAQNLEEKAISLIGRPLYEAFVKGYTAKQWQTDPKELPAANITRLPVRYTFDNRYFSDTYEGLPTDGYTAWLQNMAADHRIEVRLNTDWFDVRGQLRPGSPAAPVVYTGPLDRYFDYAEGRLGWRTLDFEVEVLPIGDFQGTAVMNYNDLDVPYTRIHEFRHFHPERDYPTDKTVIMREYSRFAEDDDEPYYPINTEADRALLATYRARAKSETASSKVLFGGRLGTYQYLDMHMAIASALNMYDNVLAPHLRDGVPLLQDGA
SARS 3CLpro inh: SARS-CoV 3CLpro protease inhibitors, primary screen, biochemical, quenched FRET | recombinant SARS-CoV 3CLpro, quenched FRET peptide cleavage | inhibition, % at 6 µM | hit rate 0.14% among 290,000 | AID 1706, 2009; in the data active = inhibition above about 12%
DUSP3 inh: VHR1 phosphatase inhibitors, primary screen, biochemical, absorbance, uHTS | inhibition, % at 13.3 µM | recombinant VHR phosphatase, pNPP absorbance | hit rate 0.52% among 290,000 | AID 1654, 2009; in the data active = inhibition above about 50%; note: some compounds called inactive have numbers as strong as hits
Vc quorum ag: inducers of Vibrio cholerae quorum light production without autoinducers, primary screen, BH1578 luxS cqsA deficient, single point; activation, % at 18.7 µM; hit rate 0.16% among 350,000; V. cholerae BH1578 lux reporter, luminescence, 6 h; in the data active = activation mostly above about 9.7%, no sharp cut-off; note: not every result past the cut was called active; inactives centre near 0; reference of the scale not given here
PriA SSB inh: inhibitors of Klebsiella pneumoniae PriA binding to SSB C-terminal tail, primary screen, biochemical, AlphaScreen | AlphaScreen SSBct-PriA binding, biotinylated peptide | inhibition, % at 33 µM | PriA–SSB C-terminal tail interaction (Klebsiella pneumoniae) | hit rate 0.6% among 430,000 | AID 1272365, 2023; in the data active = inhibition mostly above about 37%, no sharp cut-off; inactive = mostly below about 20%;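 note: plate controls were negative control peptide for no effect and reference peptide for full effect; strong numbers were not always called active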
Mtb BioA inh: M. tuberculosis BioA enzyme inhibitors, primary screen, biochemical, plate reader, single point, HTS; AID 602481, 2012; purified M. tuberculosis BioA enzyme; hit rate 0.096% among 360,000; inhibition, % at 9.99 µM; in the data active = inhibition above about 40%
Rv3671c protease: Rv3671c serine protease inhibitors, primary screen, biochemical, fluorescence polarization, M. tuberculosis H37Rv | inhibition, % at 5.96 µM | hit rate 0.048% among 320,000 | AID 2606, 2010; in the data active = inhibition above about 38%;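 note: extracellular domain of Rv3671c used as enzyme; 0% = enzyme with DMSO and 100% = no enzyme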
Target sequence (P9WHR9 whole entry, looked up, the tested form may be a part): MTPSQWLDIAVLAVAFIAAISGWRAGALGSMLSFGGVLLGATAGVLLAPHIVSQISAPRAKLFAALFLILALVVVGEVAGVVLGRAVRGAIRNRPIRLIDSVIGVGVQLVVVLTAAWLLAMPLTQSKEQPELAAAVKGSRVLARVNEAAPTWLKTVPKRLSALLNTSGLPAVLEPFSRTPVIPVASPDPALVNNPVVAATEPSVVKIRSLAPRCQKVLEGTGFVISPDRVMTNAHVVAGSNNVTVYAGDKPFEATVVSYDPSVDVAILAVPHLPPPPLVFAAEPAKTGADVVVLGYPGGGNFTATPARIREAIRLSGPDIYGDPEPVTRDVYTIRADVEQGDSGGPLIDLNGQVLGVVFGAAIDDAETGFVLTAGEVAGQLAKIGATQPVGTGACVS
GDH-TPI inh: GDH-TPI coupling enzyme inhibitors, primary screen, artefact control for M. tuberculosis FBA inhibitor project, biochemical, absorbance, full deck. GDH-TPI coupled enzyme counterscreen, NADH absorbance. inhibition, % at 4.8 µM. hit rate 1.2% among 360,000. AID 588335, 2011; in the data active = inhibition above about 30%;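 note: 0% = DMSO wells and 100% = wells lacking the enzyme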
Numbers without * were called inactive; i = inactive; nt = no result given. Not all compounds are listed, so the mix of outcomes need not match the whole.

Key to letters: A = UGM FP inh; B = SARS 3CLpro inh; C = DUSP3 inh; D = Vc quorum ag; E = PriA SSB inh; F = Mtb BioA inh; G = Rv3671c protease; H = GDH-TPI inh
(1) CCOC(=O)C1CCCN(CC(=O)N(C)c2c(N)n(Cc3ccccc3)c(=O)[nH]c2=O)C1 (centres undefined)
  A = 0.4	B = nt	C = nt	D = 0.4	E = -1	F = 0.1	G = 7	H = 8

(2) Cc1ccccc1CS(=O)(=O)Cc1ccc(C(=O)NCCCN2CCOCC2)o1
  A = 0.6	B = -2	C = -2	D = -0.3	E = 5	F = nt	G = -4	H = 9

(3) COc1ccc(N2CCN(C(=O)CC3NC4CCCCC4NC3=O)CC2)cc1 (centres undefined)
  A = 1.6	B = 2	C = -13	D = 5.9	E = 6	F = -2.2	G = 1	H = -13

(4) COc1cc(CN=C(C)c2c(O)n(C)c(=O)n(C)c2=O)cc(OC)c1
  A = -2.1	B = 3	C = 6	D = -0.5	E = -2	F = nt	G = 3	H = 2

(5) COc1ccc(C(=O)COC(=O)c2ccc3c(c2)OCCO3)c(OC)c1
  A = nt	B = nt	C = nt	D = i	E = -3	F = -1.8	G = nt	H = 4

(6) NC(=O)c1cccnc1Nc1ccccc1Cl
  A = 0.8	B = -1	C = -2	D = -0.4	E = -6	F = nt	G = -4	H = 6

(7) Clc1ccc(-c2noc(CN3CCN(c4ccccc4)CC3)n2)cc1
  A = 1.9	B = 5	C = 10	D = i	E = 7	F = -4.9	G = -8	H = -6

(8) CN(CC(=O)Nc1ccc(Cl)c(Cl)c1)C(=O)CNC(=O)Cc1ccccc1
  A = -2.2	B = nt	C = nt	D = i	E = -5	F = nt	G = -3	H = -1

(9) O=C1C2C3c4ccccc4C(c4ccccc43)C2C(=O)N1Cc1ccccn1 (centres undefined)
  A = 1.6	B = 2	C = -1	D = -0.4	E = -14	F = 1.3	G = 2	H = -1

(10) CCCCn1c(=O)nc2n(-c3ccc(C)cc3)c3ccccc3cc-2c1=O
  A = -0.1	B = -1	C = -2	D = -0.3	E = 2	F = 0.6	G = 0	H = -12

(11) COc1cccc2oc(CCc3ccccc3)cc(=O)c12
  A = nt	B = nt	C = nt	D = -0.4	E = -12	F = -0.1	G = nt	H = 0

(12) COC(=O)C1=C(c2ccccc2OCc2ccccc2)C[C@@H]2CC[C@H]1N2C(=O)NCCOc1ccccc1Cl
  A = -0.1	B = nt	C = nt	D = 1.2	E = 10	F = -0.4	G = -3	H = -6

(13) CCOc1cc(N2CCOCC2)c(OCC)cc1NC(=O)c1nn(CC)c(=O)c2ccccc12
  A = 1.4	B = nt	C = nt	D = -0.7	E = 1	F = -0.1	G = 3	H = 5

(14) COC(=O)CNC(=O)C1Cc2ccccc2CN1S(=O)(=O)c1cccs1 (centres undefined)
  A = 0.3	B = 5	C = 13	D = i	E = 4	F = -0.2	G = 2	H = 4

(15) Cn1c(NCCN2CCOCC2)nc2c1c(=O)n(Cc1cccc(Cl)c1)c(=O)n2C
  A = 4.8	B = 4	C = 4	D = i	E = 6	F = -1.7	G = 5	H = -2

(16) CC1(C)CC(=O)C2=C(C1)OC(N)=C(C#N)C2c1ccccc1OC(=O)N1CCOCC1 (centres undefined)
  A = 3.1	B = 3	C = 18	D = -2.0	E = -8	F = -1.6	G = 0	H = 9

(17) O=C(Nc1ccsc1C(=O)NC1CC1)c1ccccc1
  A = -0.4	B = -1	C = 0	D = 0.1	E = -17	F = 5.6	G = 2	H = 4

(18) CC(=O)NN1C(=O)c2ccccc2NC1c1ccccc1 (centres undefined)
  A = 1.1	B = 2	C = -3	D = -0.1	E = -4	F = -3.0	G = 0	H = -3

(19) Cc1nnsc1C(=O)N/N=C/c1ccccc1Cl
  A = -0.4	B = 3	C = -14	D = -1.1	E = i	F = nt	G = 4	H = 7

(20) COc1ccc(C)cc1NC(=O)n1ncc2c(C)cccc21
  A = 1.0	B = 1	C = -25	D = i	E = -4	F = -1.4	G = -6	H = 5

(21) COc1ccccc1C(=O)Nc1ccnn1C1CCN(Cc2cc(C)c(C)cc2C)CC1
  A = -2.7	B = -1	C = 9	D = -0.7	E = 18	F = -0.8	G = -1	H = 9

(22) CCOc1ccc(CC(=O)Nc2c3c(nn2C(C)(C)C)CS(=O)(=O)C3)cc1
  A = 2.6	B = -8	C = 14	D = -0.2	E = -10	F = -0.3	G = -10	H = 3

(23) COc1ccc(CNC(=O)CCC(=O)c2ccccc2)cc1
  A = -1.4	B = nt	C = nt	D = i	E = 1	F = -0.6	G = -2	H = -16

(24) Cc1cc(C)cc(C(=O)Nn2cnnc2)c1
  A = -2.3	B = 3	C = 30	D = i	E = -2	F = -0.3	G = 2	H = -7

(25) CCCOc1ccc(CNC(=O)C2CCN(c3nnc(N4CCCC4=O)s3)CC2)cc1
  A = 2.1	B = 4	C = 21	D = -0.4	E = 1	F = -2.6	G = -2	H = 7

Eleven structures already listed, arranged by SMILES length, lowest first:
Key to letters: A = UGM FP inh; B = SARS 3CLpro inh; C = DUSP3 inh; D = Vc quorum ag; E = PriA SSB inh; F = Mtb BioA inh; G = Rv3671c protease; H = GDH-TPI inh
(24) Cc1cc(C)cc(C(=O)Nn2cnnc2)c1
  A = -2.3	B = 3	C = 30	D = i	E = -2	F = -0.3	G = 2	H = -7

(17) O=C(Nc1ccsc1C(=O)NC1CC1)c1ccccc1
  A = -0.4	B = -1	C = 0	D = 0.1	E = -17	F = 5.6	G = 2	H = 4

(18) CC(=O)NN1C(=O)c2ccccc2NC1c1ccccc1 (centres undefined)
  A = 1.1	B = 2	C = -3	D = -0.1	E = -4	F = -3.0	G = 0	H = -3

(23) COc1ccc(CNC(=O)CCC(=O)c2ccccc2)cc1
  A = -1.4	B = nt	C = nt	D = i	E = 1	F = -0.6	G = -2	H = -16

(20) COc1ccc(C)cc1NC(=O)n1ncc2c(C)cccc21
  A = 1.0	B = 1	C = -25	D = i	E = -4	F = -1.4	G = -6	H = 5

(10) CCCCn1c(=O)nc2n(-c3ccc(C)cc3)c3ccccc3cc-2c1=O
  A = -0.1	B = -1	C = -2	D = -0.3	E = 2	F = 0.6	G = 0	H = -12

(2) Cc1ccccc1CS(=O)(=O)Cc1ccc(C(=O)NCCCN2CCOCC2)o1
  A = 0.6	B = -2	C = -2	D = -0.3	E = 5	F = nt	G = -4	H = 9

(8) CN(CC(=O)Nc1ccc(Cl)c(Cl)c1)C(=O)CNC(=O)Cc1ccccc1
  A = -2.2	B = nt	C = nt	D = i	E = -5	F = nt	G = -3	H = -1

(22) CCOc1ccc(CC(=O)Nc2c3c(nn2C(C)(C)C)CS(=O)(=O)C3)cc1
  A = 2.6	B = -8	C = 14	D = -0.2	E = -10	F = -0.3	G = -10	H = 3

(15) Cn1c(NCCN2CCOCC2)nc2c1c(=O)n(Cc1cccc(Cl)c1)c(=O)n2C
  A = 4.8	B = 4	C = 4	D = i	E = 6	F = -1.7	G = 5	H = -2

(13) CCOc1cc(N2CCOCC2)c(OCC)cc1NC(=O)c1nn(CC)c(=O)c2ccccc12
  A = 1.4	B = nt	C = nt	D = -0.7	E = 1	F = -0.1	G = 3	H = 5

Next part:
Key to letters: A = UGM FP inh; B = SARS 3CLpro inh; C = DUSP3 inh; D = Vc quorum ag; E = PriA SSB inh; F = Mtb BioA inh; G = Rv3671c protease; H = GDH-TPI inh
(26) O=C(c1ccc(F)cc1)C1CCN(C(=O)c2ccc(Cl)cc2)CC1
  A = nt	B = nt	C = nt	D = -0.7	E = -11	F = 2.7	G = nt	H = 1

(27) O=C(Nc1ncn[nH]1)c1cccc(F)c1
  A = 3.3	B = nt	C = nt	D = -0.3	E = -11	F = 0.0	G = 3	H = 6

(28) N#CCOc1ccccc1P(=O)(c1ccccc1)c1ccccc1
  A = 6.5	B = 6	C = 17	D = i	E = 5	F = nt	G = 2	H = 16

(29) CCOC(=O)/C(C#N)=C\C1=C(N2CCCC2)CC(C)(CC)OC1 (centres undefined)
  A = 0.5	B = 5	C = 40	D = -0.7	E = -7	F = 2.9	G = -3	H = -7

(30) Cc1ccc(S(=O)(=O)N[C@H](C(=O)N2CCC(C(=O)N3CCC[C@H]3C(=O)O)CC2)C(C)C)cc1
  A = nt	B = 0	C = -21	D = i	E = -4	F = -1.6	G = nt	H = 7

(31) COc1ccc(OC2C(=O)N(CCc3ccc(OC)c(OC)c3)C2c2ccc3c(c2)OCO3)cc1 (centres undefined)
  A = -0.7	B = 8	C = -5	D = i	E = -8	F = -2.6	G = 2	H = 9

(32) CCOC(=O)c1n[nH]c2ccccc12
  A = 1.2	B = -1	C = 9	D = i	E = -2	F = -2.2	G = -1	H = -2

(33) O=C(CCS(=O)(=O)c1ccc(Br)cc1)N1CCN(c2ccccc2F)CC1
  A = 2.9	B = -3	C = 4	D = i	E = -17	F = 1.0	G = -3	H = 10

(34) Cc1cc(=O)oc2c3c(cc(OCC(=O)NCCC(=O)N[C@@H](C)C(=O)O)c12)OC(C)(C)CC3
  A = -1.1	B = -3	C = 21	D = 0.8	E = 2	F = 0.5	G = nt	H = 15

(35) COC(=O)NNC(=S)NCc1ccc(C)cc1
  A = -1.4	B = 1	C = 36	D = i	E = -6	F = -2.2	G = -11	H = 6

(36) CCOC(=O)CCc1c(C)c2ccc(OCc3nn[nH]n3)c(C)c2oc1=O
  A = -2.0	B = 3	C = -8	D = -0.1	E = 3	F = nt	G = -3	H = 17

(37) Cc1ccsc1-c1cc(C(=O)O)c2c(ccc3ccccc32)n1
  A = 2.4	B = 1	C = -4	D = -0.8	E = -24	F = 0.5	G = 0	H = 16

(38) O=C(O)C1CC=CCC1C(=O)NCc1cn2ccccc2n1 (centres undefined)
  A = -3.3	B = 1	C = -2	D = 0.2	E = -12	F = -0.8	G = -1	H = 11

(39) Cc1cc2c(c(SCC#N)n1)C(=O)OC2
  A = -1.9	B = 1	C = 28	D = -0.4	E = -3	F = 3.5	G = 0	H = -6

(40) COC(=O)COc1ccc2cc(-c3ccc(OC)cc3)c(=O)oc2c1
  A = -0.8	B = -1	C = 39	D = -0.3	E = -8	F = 0.9	G = 3	H = 17
